Screens deposited in PubChem by Broad Institute.
FGF22 binding: FGF22 (human) thermal shift binding | recombinant FGF22 thermal shift, SYPRO orange fluorescence; percent of sucrose octasulfate shift, DMSO zero | calls only at 9.99 µM | 340,000 tested, 1.5% active | AID 651658;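 active means melting point raised past a set limit in the mean and every replicate; three in four hits are not shown here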
Target sequence (Q9HCT0 whole entry, looked up): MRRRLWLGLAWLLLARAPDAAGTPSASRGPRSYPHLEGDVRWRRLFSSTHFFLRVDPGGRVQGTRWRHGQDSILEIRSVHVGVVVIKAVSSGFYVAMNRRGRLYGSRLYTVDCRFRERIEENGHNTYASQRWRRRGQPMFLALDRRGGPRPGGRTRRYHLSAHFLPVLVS
MLL AF4-AF9 inh: blocks AF4 peptide binding to human AF9; AID 651704; P42568; inhibition, % at 10 µM; 350,000 tested, 0.47% active; AlphaScreen, biotin-AF4 peptide binding to FLAG-AF9;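 active means every replicate reaching a set inhibition limit, whatever the replicate mean, cut at about 25% in these data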;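 further: 0% = plate neutral control median and 100% = total signal loss; the record names both 10 and 1 µM as test concentration; the first replicate is given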
Target sequence (P42568 whole entry, looked up): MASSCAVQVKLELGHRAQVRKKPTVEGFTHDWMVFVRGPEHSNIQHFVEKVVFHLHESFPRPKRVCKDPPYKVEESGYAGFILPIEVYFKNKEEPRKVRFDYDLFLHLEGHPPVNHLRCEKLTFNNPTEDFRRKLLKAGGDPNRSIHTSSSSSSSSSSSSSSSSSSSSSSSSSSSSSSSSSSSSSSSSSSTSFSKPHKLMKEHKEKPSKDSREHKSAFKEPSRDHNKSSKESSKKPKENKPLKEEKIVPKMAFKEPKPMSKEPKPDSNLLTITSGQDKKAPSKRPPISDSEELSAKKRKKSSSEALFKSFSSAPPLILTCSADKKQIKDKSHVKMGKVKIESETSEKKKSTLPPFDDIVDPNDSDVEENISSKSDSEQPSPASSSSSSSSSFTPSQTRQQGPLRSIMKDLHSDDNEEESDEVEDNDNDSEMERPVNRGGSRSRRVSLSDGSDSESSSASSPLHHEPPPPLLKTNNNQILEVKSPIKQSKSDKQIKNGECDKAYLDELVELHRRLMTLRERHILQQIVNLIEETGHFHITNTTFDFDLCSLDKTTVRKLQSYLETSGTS
rRNA inh HTS: selective bacterial rRNA inhibition in E. coli | E. coli WT GFP vs humanized-ribosome RFP mutants, fluorescence, 24 h; active compounds read low; DMSO median 0, no signal -100 | GFP signal change (wild-type ribosome), % (test concentration not listed) | 350,000 tested, 1.6% active;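 active means significant combined selectivity score with lowered wild-type GFP, culture density cut under 30%, mutant RFP and density less affected; inactive means any of these conditions unmet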; further: one replicate is shown; some compounds called inactive have numbers as strong as hits
rRNA inh HTS OD600: also measured in rRNA inh HTS; calls as there; OD600 change, %; measured here: OD600 growth;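 optical density of the mix in the first replicate; 0 = DMSO median and -100 = no signal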
rRNA inh HTS RFP: second read-out of rRNA inh HTS, no call of its own (marks repeat the call); RFP signal change, %; measured here: RFP humanized mutant strains;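 first replicate; 0 = DMSO median and -100 = no signal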
The depositor's hits bear a star; i = inactive; . = no result given; & = joins results of further samples.

Preview (9 entries):
FGF22 binding,rRNA inh HTS,MLL AF4-AF9 inh,rRNA inh HTS OD600,rRNA inh HTS RFP,SMILES
i,3,-4.2,7,-2.8,COC(=O)CCCn1cc(CN2CC(N3CCN(Cc4cccc(C)c4)CC3)CS2(=O)=O)nn1 (centres undefined)
i,-1,-5.4,8,-0.6,COc1ccccc1-c1ccc([C@H]2[C@H]3CN(S(=O)(=O)c4cn(C)cn4)CCCCN3[C@H]2CO)cc1
i,-7,-4.8,-10,-0.1,Cc1ccc(S(=O)(=O)N[C@@H]2CC[C@H](CC(=O)N3CCc4ccccc4C3)O[C@@H]2CO)cc1
i,24,-0.5,18,1.6,CCCCn1nnnc1C(c1cc2ccccc2o1)N1CCN(c2c(C)cccc2C)CC1 (centres undefined)
i,2,-5.7,7,-0.7,COCC#Cc1ccc2c(c1)O[C@H](CN(C)C(=O)COC)[C@H](C)CN([C@H](C)CO)S2(=O)=O
i,5,-1.7,8,-5.9,CCS(=O)(=O)Nc1ccc2c(c1)C(=O)N(C)C[C@@H](OC)[C@@H](C)CN[C@@H](C)CO2
i,4,-1.3,9,-1.4,C[C@H]1CN([C@@H](C)CO)C(=O)Cc2cc(NS(=O)(=O)c3ccccc3)ccc2O[C@H]1CN(C)Cc1ccc(C(=O)O)cc1
i,3,-0.5,2,1.1,Cc1ccc(S(=O)(=O)Nc2ccc3c(c2)C(=O)N([C@H](C)CO)C[C@H](C)[C@@H](CN(C)S(=O)(=O)c2cccs2)OCCCC[C@@H](C)O3)cc1
i,-4,-1.0,-9,5.5,CC(C)OC(=O)N(C)C[C@H]1OCc2ccccc2-c2c(n(C)c3ccccc23)C(=O)N([C@@H](C)CO)C[C@@H]1C

All compounds of this part, repeating the preview:
FGF22 binding,rRNA inh HTS,MLL AF4-AF9 inh,rRNA inh HTS OD600,rRNA inh HTS RFP,SMILES
i,3,-4.2,7,-2.8,COC(=O)CCCn1cc(CN2CC(N3CCN(Cc4cccc(C)c4)CC3)CS2(=O)=O)nn1 (centres undefined)
i,-1,-5.4,8,-0.6,COc1ccccc1-c1ccc([C@H]2[C@H]3CN(S(=O)(=O)c4cn(C)cn4)CCCCN3[C@H]2CO)cc1
i,-7,-4.8,-10,-0.1,Cc1ccc(S(=O)(=O)N[C@@H]2CC[C@H](CC(=O)N3CCc4ccccc4C3)O[C@@H]2CO)cc1
i,24,-0.5,18,1.6,CCCCn1nnnc1C(c1cc2ccccc2o1)N1CCN(c2c(C)cccc2C)CC1 (centres undefined)
i,2,-5.7,7,-0.7,COCC#Cc1ccc2c(c1)O[C@H](CN(C)C(=O)COC)[C@H](C)CN([C@H](C)CO)S2(=O)=O
i,5,-1.7,8,-5.9,CCS(=O)(=O)Nc1ccc2c(c1)C(=O)N(C)C[C@@H](OC)[C@@H](C)CN[C@@H](C)CO2
i,4,-1.3,9,-1.4,C[C@H]1CN([C@@H](C)CO)C(=O)Cc2cc(NS(=O)(=O)c3ccccc3)ccc2O[C@H]1CN(C)Cc1ccc(C(=O)O)cc1
i,3,-0.5,2,1.1,Cc1ccc(S(=O)(=O)Nc2ccc3c(c2)C(=O)N([C@H](C)CO)C[C@H](C)[C@@H](CN(C)S(=O)(=O)c2cccs2)OCCCC[C@@H](C)O3)cc1
i,-4,-1.0,-9,5.5,CC(C)OC(=O)N(C)C[C@H]1OCc2ccccc2-c2c(n(C)c3ccccc23)C(=O)N([C@@H](C)CO)C[C@@H]1C
i,4,-9.2,9,-2.0,Cc1noc(C)c1NC(=O)N(C)C[C@H]1OCCCC[C@@H](C)Oc2ccc(NC(=O)NC(C)C)cc2C(=O)N([C@H](C)CO)C[C@@H]1C
i,3,-2.6,-5,0.4,C[C@@H]1CN([C@@H](C)CO)C(=O)Cc2cc(NC(=O)Cn3cnnn3)ccc2O[C@H]1CN(C)C
i,2,-0.6,0,-0.2,COc1ccc2c3c([nH]c2c1)[C@H](CO)N(C(=O)C1CCCC1)CC31CN(C)C1
i,1,2.2,-14,2.8,CCCC#Cc1ccc2c(c1)O[C@@H](CN(C)C(=O)CC)[C@H](C)CN([C@H](C)CO)S2(=O)=O
i,4,0.6,2,-3.1,COc1cc(C(=O)N2CCN(c3cccc(Cl)c3)CC2)ccc1OCC(=O)N1CCOCC1
i,-3,-6.5,1,-4.8,CCCC#Cc1cnc2c(c1)C(=O)N([C@H](C)CO)C[C@@H](C)[C@H](CN(C)C(=O)c1cccc(F)c1)O2
i,-3,-0.6,1,-2.7,COc1ccc(C(=O)Nc2ccc3c(c2)OC[C@H](C)NC[C@@H](C)[C@H](OC)CN(C)C3=O)cc1
i,2,-2.6,3,-1.0,CC(C)(C)OC(=O)N1CCCC(C(=O)Nc2cccc(C(=O)N3CCCCC3)c2)C1 (centres undefined)
i,1,15,-4,2.6,C[C@H]1CN([C@@H](C)CO)C(=O)c2cc(N(C)C)ccc2O[C@@H]1CN(C)Cc1ccc(C(F)(F)F)cc1
i,-3,-1.7,-4,-0.5,C[C@H]1CN([C@@H](C)CO)C(=O)c2cc(-c3ccncc3)cnc2O[C@@H]1CN(C)S(=O)(=O)c1ccc(F)cc1
i,-2,-2.9,-5,4.2,O=C(C[C@H]1CC[C@@H]2[C@H](COC[C@H](O)CN2C(=O)Nc2ccc(F)cc2)O1)NC1Cc2ccccc2C1
i,15,3.1,22,4.9,CN(C1=NS(=O)(=O)c2ccccc21)c1ccc(OC(=O)c2ccccc2F)cc1
i,3,-6.1,8,14,CN(C)C(=O)c1cc2c(c(-c3cccc(C4=CCCC4)c3)n1)[C@H](CCO)N([S@@](=O)C(C)(C)C)C2
i,5,-6.0,8,-3.5,C[C@H](O)C#Cc1ccc([C@H]2[C@H](CO)N3CCCCN(C(=O)c4cccc(F)c4)C[C@@H]23)cc1
i,-9,-1.5,-16,-0.7,O=C(Cc1ccccc1)N1C[C@@H]2[C@H](c3ccccc31)[C@H](CO)N2S(=O)(=O)c1ccccc1
i,0,1.3,-1,1.4,COc1ccc(CN(C)C[C@H]2Oc3c(NS(=O)(=O)c4ccc(Cl)cc4)cccc3C(=O)N([C@H](C)CO)C[C@@H]2C)cc1
i,-2,-0.4,7,-1.4,CNC[C@H]1Oc2ncc(C#CC3(O)CCCC3)cc2C(=O)N([C@@H](C)CO)C[C@H]1C
i,3,-2.6,-5,-0.8,O=C(NCc1ccccn1)[C@@H]1CCCN1C(=O)[C@@H]1CCCN1C(=O)c1ccccc1
i,-3,0.6,2,-1.1,Cc1noc(C)c1S(=O)(=O)Nc1ccc2c(c1)C(=O)N([C@@H](C)CO)C[C@H](C)[C@@H](CN(C)S(=O)(=O)c1ccccc1)O2
i,1,1.7,5,2.2,CO[C@H]1CN(C)C(=O)c2ccc(NC(=O)Nc3cc(F)ccc3F)cc2OC[C@@H](C)N(C)C[C@@H]1C
i,0,-30,-4,-2.8,C[C@H](CO)N1C[C@H](C)[C@H](CN(C)Cc2ccccc2)Oc2c(NC(=O)c3cnccn3)cccc2C1=O
i,2,-2.7,8,0.1,COc1ccccc1CNC(=O)C[C@@H]1C=C[C@@H](NC(=O)CC2CC2)[C@H](CO)O1
i,6,-0.4,14,0.4,C[C@H]1CN([C@@H](C)CO)C(=O)c2cc(NC(=O)C3CC3)ccc2O[C@@H]1CN(C)CC1CCCCC1
i,7,-2.0,6,1.7,C[C@H](O)[C@@H]1C(=O)N2CCc3ccc(-c4ccccc4)cc3[C@@H]2C[C@@H]1N(C)C(=O)Nc1cc(Cl)cc(Cl)c1
i,0,2.4,-5,0.6,C[C@@H]1CN([C@H](C)CO)C(=O)c2cc(NS(=O)(=O)c3ccccc3)ccc2O[C@@H](C)CCCCO[C@H]1CN(C)C(=O)Nc1ccc(F)cc1
i,11&-2,-3.1&-0.5,16&-2,2.9&0.2,COc1ccccc1CNC(=O)C[C@@H]1C[C@H]2c3cc(NC(=O)c4ccc5c(c4)OCO5)ccc3O[C@H]2[C@@H](CO)O1
i,-2,-2.0,-4,-0.7,C/C=C/c1ccc2c(c1)O[C@@H](CN(C)C(=O)c1ccncc1)[C@@H](C)CN([C@H](C)CO)S2(=O)=O
i,1,0.2,-5,5.0,C[C@@H]1CN([C@@H](C)CO)C(=O)Cc2cc(NS(=O)(=O)c3ccc(F)cc3)ccc2O[C@H]1CN(C)CC1CCCCC1
i,10,-0.7,12,18,O=C(C[C@@H]1CC[C@H]2[C@@H](COC[C@H](O)CN2C(=O)C2CCOCC2)O1)NCc1ccncc1
.,14,-2.8,3,-0.6,CC(=O)OC[C@H]1O[C@H](C#Cc2ccc(C(C)(C)C)cc2)C=C[C@H]1OC(=O)Nc1ccccc1
i,-5,0.0,-24,-2.3,C[C@@H]1CN([C@H](C)CO)S(=O)(=O)c2ccc(C#Cc3ccncc3)cc2O[C@H]1CN(C)C(=O)C1CCC1
i,-2,-1.8,8,0.0,C[C@H]1CN([C@@H](C)CO)C(=O)c2cc(NS(=O)(=O)c3cn(C)cn3)ccc2O[C@@H]1CN(C)C
i,-22,-2.0,-62,-2.3,Cc1ccc(NC(=O)C2(C)CCN2Cc2ccccc2OC(F)F)cc1 (centres undefined)
i,-3,-1.2,4,-6.6,CCNC(=O)C[C@@H]1CC[C@@H]2[C@H](COC[C@@H](O)CN2C(=O)Nc2c(C)noc2C)O1
i,3,29*,-15,13,COc1ccc2c3c(n(C)c2c1)[C@@H](CO)N(C(=O)Nc1cccc(F)c1)CC31CCN(Cc2nccs2)CC1
i,4,-5.5,3,-2.9,CC(=O)N(C)C[C@H]1Oc2ncc(C#Cc3cccnc3)cc2C(=O)N([C@H](C)CO)C[C@@H]1C
i,0,-0.2,4,0.6,O=C(C[C@@H]1C=C[C@H](NC(=O)Nc2ccc(C(F)(F)F)cc2)[C@@H](CO)O1)NCc1cccc(F)c1
i,2,-5.3,5,-4.8,CCCC(=O)N1CCCC(c2cc(C(=O)NCc3ccccc3)no2)C1 (centres undefined)
i,-1,0.5,-4,-1.6,CO[C@@H]1CN(C)C(=O)c2cc(NS(=O)(=O)c3cn(C)cn3)ccc2OC[C@@H](C)N(CC2CC2)C[C@@H]1C
i,-3,-0.8,1,-0.1,O=C(Nc1ccccc1F)N[C@@H]1C=C[C@@H](CC(=O)N2CCCCC2)O[C@H]1CO
i,13,0.2,12,2.1,CC(C)(C)OC(=O)N1CCC(C(=O)Nc2ccc(C(=O)NC3CC3)cc2)CC1

Going on with the list:
FGF22 binding,rRNA inh HTS,MLL AF4-AF9 inh,rRNA inh HTS OD600,rRNA inh HTS RFP,SMILES
i,-2,3.7,-3,-0.5,C[C@H]1CN([C@@H](C)CO)C(=O)c2cccc(NC(=O)C3CC3)c2O[C@@H]1CN(C)Cc1ccc(C(=O)Nc2ccccc2N)cc1
i,0,-2.7,5,-1.9,CCC(=O)Nc1ccc2c(c1)C(=O)N(C)C[C@H](OC)[C@H](C)CN(CCC(F)(F)F)[C@@H](C)CO2
i,20,-1.3,12,0.6,CNS(=O)(=O)c1ccc(CNC[C@H]2O[C@@H](n3cc(C)c(=O)[nH]c3=O)C[C@@H]2O)cc1
i,7,-5.4,15,-3.4,C[C@@H]1CN([C@H](C)CO)C(=O)c2cc(C#CC(C)(C)O)cnc2O[C@@H]1CN(C)Cc1ccccn1
i,2,-1.8,3,-1.1,O=C(C[C@H]1CC[C@@H](NC(=O)Nc2cc(F)ccc2F)[C@@H](CO)O1)NCCCN1CCOCC1
i,-4,0.1,1,-4.2,CO[C@@H](CN(C)S(=O)(=O)c1ccc(F)cc1)[C@H](C)CN(C(=O)Nc1ccccc1F)[C@H](C)CO
i,2,-2.6,16,1.2,CC(C)CC(N)c1csc(Nc2ccc(S(C)(=O)=O)cc2)n1 (centres undefined)
i,-4,-1.1,-8,-1.0,O=C(C[C@@H]1CC[C@@H]2[C@H](COC[C@@H](O)CN2S(=O)(=O)c2ccc(Cl)cc2)O1)N[C@H]1CCN(Cc2ccccc2)C1
i,8,-2.2,6,-0.7,O=C(NC1CCCCC1)C(c1ccnc2ccccc12)n1c(=O)c(-c2ccccc2)nc2ccccc21 (centres undefined)
i,2,-14,-5,12,COc1ccccc1NC(=O)Nc1nc(C(N)CCc2ccccc2)cs1 (centres undefined)
i,8,-1.4,5,-7.3,O=C(C[C@@H]1CC[C@@H]2[C@H](COC[C@H](O)CN2Cc2nccs2)O1)NCc1ccc(Cl)cc1
i,-53,10.0,-60,-4.8,CCCC#Cc1ccc([C@@H]2[C@H](CO)N3CCCCN(S(=O)(=O)c4ccccc4F)C[C@@H]23)cc1

This is a subset; the hit share may differ from the screen's.
